NPYLR7 agonist: mosquito NPYLR7 agonism. HEK293T NPYLR7/Galpha15, GCaMP6s calcium fluorescence. activation, % at 10 µM. 0.15% of 270,000 active. AID 1259423; in the data active = activation above about 40%;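 note: 0% = vehicle and 100% = reference agonist at the receptor; some compounds past the cut are filed as inactive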
NPYLR7 agonist max-min: further read-out of NPYLR7 agonist, marked with its call; activation, %; measured here: Max-Min RFU normalised activation; some inactives read as strong as hits;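 span of the calcium signal over five minutes; 0% = vehicle and 100% = native peptide agonist; compound fluorescence can raise it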
The depositor's hits bear a star. This is a subset. The share of hits here may be higher or lower than overall.

SMILES	NPYLR7 agonist	NPYLR7 agonist max-min
CCCC(=O)Nc1c(-c2ccc(OC)c(OC)c2)c(=O)c2ccccc2n1C	3	0
O=C1Cc2cc(-c3csc(NCC4CCCO4)n3)ccc2N1 (configuration not stated)	-10	-10
Cc1ccc(C(C)C)c(OCC(=O)Nc2ccc3c(c2)OCO3)c1	-1	1
Cn1c(Cl)cnc1CN1CCCc2c(C(N)=O)cccc21	10	5
COc1cccc(-c2nc3c(C)cccn3c2NC2CCCCC2)c1	-1	5
CC(C)=CC(=O)N1CC(=O)N2CC(C)c3ccccc3C2C1 (configuration not stated)	-3	8
COc1ccc(CNC(=O)C2CCC(=O)N(C3CCCCCC3)C2)c(OC)c1 (configuration not stated)	21	8
CC(C(=O)NCc1cccs1)S(=O)(=O)c1ccc(C(F)(F)F)cn1 (configuration not stated)	5	4
CCOc1ccc(-n2c(SCC(=O)NCC3CCCO3)nc3c([nH]c4ccccc43)c2=O)cc1 (configuration not stated)	1	45
COc1ccc(OC)c(C2c3cccn3CCN2C(=O)NCc2ccccc2)c1 (configuration not stated)	3	0
CCCCCc1nnc(NC(=O)c2ccc(=O)n(C)n2)s1	-5	-7
COc1ccc(C)cc1NC(=O)N1CCC(CCc2ccc(C(F)(F)F)cc2)CC1	1	6
N#Cc1ccc(C(=O)N2CCCCC2c2cc(C(=O)NCc3ccccc3)no2)cc1 (configuration not stated)	3	0
Cc1cc(Nc2cccc(S(N)(=O)=O)c2)c2ccc(C(F)(F)F)cc2n1	8	6
Cc1ccc(C2CC(C(F)(F)F)n3ncc(C(N)=O)c3N2)cc1 (configuration not stated)	-2	-10
COc1ccc(COC(=O)C2=C(C)NC(=O)NC2c2cc(OC)ccc2OC)cc1 (configuration not stated)	-4	-7
Cc1cc(C)c(NC(=O)CN(C)C(=O)c2ccc(Cl)c(N3CCCC3=O)c2)c(C)c1	0	2
O=C(Cn1[nH]c(=O)c2ccccc2c1=O)N1CCCC1Cc1ccccc1 (configuration not stated)	6	8
CCOc1ccc(S(=O)(=O)Nc2cc(-c3cn4nc(OC)ccc4n3)ccc2C)cc1	-13	-18
COc1ccc(-n2cc(-c3ccnc(NCCN4CCNC4=O)n3)cn2)cc1	38	16
NC1=NC(=O)/C(=C\c2cc([N+](=O)[O-])ccc2Cl)S1	9	8
Cc1ccc(S(=O)(=O)Oc2cccc(-c3nc4cc(C)ccc4o3)c2)cc1	5	6
Cc1c(C(=O)NCc2ccc3c(c2)OCCO3)sc(=O)n1Cc1cccc(C(F)(F)F)c1	9	5
Cn1c(=O)c(C(=O)Nc2cc(Cl)ccc2Cl)cc2cccnc21	2	0
CCn1cncc1CNC(=O)CC1C(=O)NCCN1Cc1ccccc1F (configuration not stated)	2	-1
SMILES	NPYLR7 agonist	NPYLR7 agonist max-min
O=C(CC1Cn2ncc(-c3ccccc3)c2NC1=O)NCCCN1CCOCC1 (configuration not stated)	1	1
O=C(COc1ccc(Cl)cc1)Nc1nc(-c2ccccc2)c(C(=O)c2ccccc2)s1	-4	-10
CCOc1ccccc1NC(=O)Cn1nc(-c2cccs2)c2sc(N3CCOCC3)nc2c1=O	-3	-9
CCc1nc2n(n1)C(=O)C(C(c1cccc(Br)c1)N1CCC(C(=O)OC)CC1)S2 (configuration not stated)	-2	3
O=C(c1cccc2c1OCC2)N1CCCC(CO)(Cc2ccccc2)C1 (configuration not stated)	-4	-3
COCCOC(=O)C1=C(C)N(C)C(=S)NC1c1cccc(NS(=O)(=O)c2ccc(C)cc2)c1 (configuration not stated)	19	23
CP(=O)(Nc1ccc([N+](=O)[O-])cc1)c1nc2c(s1)CCCC2 (configuration not stated)	9	8
O=C1NC(=O)N(Cc2cccs2)C1=O	1	7
O=S(=O)(Cc1ccc(Cl)cc1Cl)c1cn[nH]n1	-2	-5
C=c1ccccc1=c1[nH]/c(=C\c2ccccc2C(F)(F)F)c(=O)o1	-1	0
O=C(c1ccco1)N1CCCN(c2nccc(CCC(F)(F)F)n2)CC1	-6	-10
CC(=O)Cn1c(=O)c2c(nc3n(-c4ccccc4F)c(-c4ccccc4)cn23)n(C)c1=O	-3	25
Cc1n[nH]c(C)c1S(=O)(=O)NCCn1ncc2c(N3CCCC3)ncnc21	2	0
Cc1nc2sccn2c1C(=O)N1CCC(n2nccc2NC(=O)C(C)(C)C)CC1	5	4
CCCC(=O)Nc1c(-c2ccccc2OC)nc2cc(C)ccn12	-6	-1
Cc1ccc2nc(C)c(NC(=O)c3ccco3)c(=O)n2c1	3	1
Cc1ccc(/C=C/S(=O)(=O)N2CCC(C(=O)O)CC2)cc1	8	2
O=[N+]([O-])c1ccc(S(=O)(=O)N2CCCN(c3nc(Cc4ccccc4)ns3)CC2)cc1	19	27
CN(CC(=O)Nc1ccc(N2CCCC2=O)cc1)Cc1cccc(F)c1	-4	4
Cc1ccc(OCC(=O)NNC(=O)c2ccccc2C)cc1	-3	-8
O=C(CCc1nc(-c2ccccc2)no1)N1CCCC(Nc2ccc3c(c2)OCCO3)C1 (configuration not stated)	6	2
COc1ccc(NC(=O)N2CCc3nc(Cc4cccc(F)c4)[nH]c(=O)c3C2)cc1	-6	2
Cc1ccc(C(=O)NCCC2=CCCCC2)cc1NC(=O)C1CC1	1	2
CCn1ccnc1CN(C)C(=O)c1cc(COc2ccc3c(c2)OCO3)[nH]n1	2	0
CC(C1CC1)n1nccc1NC(=O)c1cnc(-c2cnn(C)c2)s1 (configuration not stated)	9	6
SMILES	NPYLR7 agonist	NPYLR7 agonist max-min
Cn1c(CO)cnc1SCc1csc(-c2ccoc2)n1	6	4
CC(NC(=O)CCN(c1nc(-c2cccs2)nc2ccccc12)C1CC1)c1ccccc1 (configuration not stated)	16	15
O=C(c1ccc(F)cc1)N1CCC(C(NS(=O)(=O)c2ccccc2)C(=O)N2CCOCC2)CC1 (configuration not stated)	-7	-1
CN(C)CC1(O)CCCN(C(=O)CCCc2cn[nH]c2)C1 (configuration not stated)	8	5
Cc1nnc(SCC(=O)NC(=O)Nc2ccccc2)n1C1CC1	1	13
CCOC(=O)c1c(C)oc(N)c1C(N)=O	8	12
Cc1cccc(CN(C(=O)CCNS(C)(=O)=O)C(C)C)c1	2	2
CC(=O)Nc1cccc(-c2nc(CC3CCN(C)CC3)no2)c1	7	-1
CCC1CN(CCNC(=O)c2cccnc2OC)Cc2cc(OC)ccc2O1 (configuration not stated)	4	2
O=C1CN(C(=O)C2CC(=O)N(c3ccccc3F)C2)c2ccccc2N1 (configuration not stated)	-1	-5
O=C(c1cccc(F)c1)N1CCSC1c1cccs1 (configuration not stated)	-6	-3
CCC(C(=O)Nc1ccc(N2CCCCC2)c(C(=O)NCCc2ccccc2)c1)c1ccccc1 (configuration not stated)	-3	-2
CC(C)(C)c1cc2nc(-c3ccccc3F)cc(C(=O)NCc3cccc(C(F)(F)F)c3)n2n1	-17	-10
O=C(NCc1ccc(COCC(F)(F)F)cc1)c1ccccc1Br	-4	-5
CCNc1ccnc(N2CCC(C(O)c3ccccn3)CC2)n1 (configuration not stated)	2	-3
CCCNc1n[nH]c(=S)s1	-2	-1
Cc1cc2nc3c(c(C(F)(F)F)n2n1)CCCC3	3	3
Cn1c2ccccc2n2c(C(=O)NN)c(-c3ccccc3)nc12	-12	-21
O=C(C1CCCCC1)N1CCC(CCc2ccc(-c3ccccc3)cc2)CC1	-1	-7
CCn1c(=O)[nH]c2cc(C(=O)N3CC(c4cc(C)ccc4C)OCC3C)ccc2c1=O (configuration not stated)	0	-1
O=C(NNC(=O)c1cccs1)c1cccc([N+](=O)[O-])c1	-1	-2
COc1ccc(OC)c(NC(=O)CSc2nc3c(c(=O)n2-c2cc(C)cc(C)c2)SCC3)c1	-4	-8
CC1C(=O)N(c2ccc(Oc3ccccc3)cc2)CCN1C(=O)Nc1cccc(Cl)c1 (configuration not stated)	-14	-11
Cc1noc(C2CCN(c3ccc(S(=O)(=O)C(F)(F)F)cc3)CC2)n1	18	16
CCN(CC)CCCC(C)NC(=O)c1ccc(-c2cc(-c3cccc4ccccc34)[nH]n2)cc1 (configuration not stated)	6	3
SMILES	NPYLR7 agonist	NPYLR7 agonist max-min
C=CCn1ncc(-c2nc3c(cnn3Cc3cccs3)[nH]2)c1C	6	4
CCN(Cc1ccncc1)C1CCCN(S(=O)(=O)c2ccc(S(C)(=O)=O)cc2)C1 (configuration not stated)	-17	-22
CCN1CC(COC(=O)c2sccc2C)CC1=O (configuration not stated)	4	4
NC(=O)C1CCCN1C(=O)C1=NOC(c2ccccc2)C1 (configuration not stated)	5	2
Cc1cccn2c(=O)c(C=C3C(=O)NC(=O)NC3=O)c(N3CCCC3)nc12	5	4
CCc1ccccc1NC(=O)CNC(=O)Cc1cn2ccsc2n1	0	6
Cc1ccc(S(=O)(=O)Nc2nc3ccc(NS(=O)(=O)c4ccc5[nH]cc(C(=O)O)c(=O)c5c4)cc3s2)cc1	-10	-18
COc1ccc(F)c(-c2nccn2CCCn2ccnc2)c1	5	3
CCOc1ccc(-n2ccnc(SCC(=O)NCCC(C)C)c2=O)cc1	4	9
CN(C)c1cccc2c(S(=O)(=O)Nc3nccnc3N3CCN(C(=O)Nc4ccc5c(c4)OCO5)CC3)cccc12	-4	-12
CCN(Cc1ccc(N2CCC(OC)CC2)cc1)C(=O)Nc1nncs1	5	2
Cc1nn(-c2ccccc2)c2c1C(c1ccc(O)cc1)C(C#N)C(=N)O2 (configuration not stated)	1	-1
CCOC(=O)C1CCCN(C(=O)CCc2nc(-c3ccccc3F)no2)C1 (configuration not stated)	-8	-10
O=C(NCCOc1ccccc1)N1CCN(S(=O)(=O)c2ccc(F)cc2)CC1	2	3
CN=c1scc(-c2cc(OC)ccc2OC)n1N=C(C)c1ccc2c(c1)OCO2	-10	-16
COc1ccc(S(N)(=O)=O)cc1NC(=O)C=C1CCCCC1	-3	-3
COc1ccc(-c2cnc(-c3ccc(CNC(=O)c4cc(OC)cc(OC)c4)cc3)[nH]2)cc1	-15	-10
Cc1ccc(C(=O)NCC(=O)Nc2nc3c(s2)CN(Cc2ccccc2)CC3)s1	5	10
COc1cc(C(=O)N2CCN(Cc3ccc(-c4noc(C5CCCC5)n4)cc3)CC2)ccc1F	7	10
O=c1c2sccc2nc2n1Cc1nc3ccsc3c(=O)n1C2	0	27
COC(=O)c1cc(NC(=O)c2cccnc2)cc(C(=O)OC)c1	1	6
COc1ccc(-c2ccc(=O)n(Cc3ccc(C)cc3)n2)cc1OC	3	0
Cc1nc(SCC(=O)Nc2ccccc2Cl)c2c3c(sc2n1)CCC3	-9	-14
Cn1ccnc1CN(C(=O)c1ccc(CSc2ncccn2)o1)C1CC1	7	4
CCC(C)C(NC(=O)Nc1ccc(OC)cc1OC)C(=O)Nc1nnc(-c2cccc(Br)c2)s1 (configuration not stated)	0	5

Of the compounds above, these have a cyano group.
SMILES	NPYLR7 agonist	NPYLR7 agonist max-min
N#Cc1ccc(C(=O)N2CCCCC2c2cc(C(=O)NCc3ccccc3)no2)cc1 (configuration not stated)	3	0
Cc1nn(-c2ccccc2)c2c1C(c1ccc(O)cc1)C(C#N)C(=N)O2 (configuration not stated)	1	-1

Additional compounds.
SMILES	NPYLR7 agonist	NPYLR7 agonist max-min
Cc1ccc2c(-c3c(-c4ccccc4)ncn3CC(O)CO)c(C)[nH]c2c1 (configuration not stated)	15	10
O=C(Nn1cnc2c(cnn2-c2ccccc2)c1=O)C(c1ccccc1)c1ccccc1	6	6
CCc1ccc(C(=O)CSc2nnc(-c3ccco3)n2C)cc1	14	5
Cc1ccccc1C(=O)Nc1cc(C(=O)NCCC(N)=O)ccc1F	6	4
Cc1cc(C=C(C#N)C(=O)O)c(C)n1CCC(C)C	4	1
Cc1nc(N2CCOCC2)nc(N(C)C)c1[N+](=O)[O-]	8	3
O=C1NCC2(CCN(C(=O)c3ccc4cccc(Cl)c4n3)CC2)O1	1	-1

Compounds from the list above with an aryl methoxy group, in the order listed:
SMILES	NPYLR7 agonist	NPYLR7 agonist max-min
CCCC(=O)Nc1c(-c2ccc(OC)c(OC)c2)c(=O)c2ccccc2n1C	3	0
COc1cccc(-c2nc3c(C)cccn3c2NC2CCCCC2)c1	-1	5
COc1ccc(CNC(=O)C2CCC(=O)N(C3CCCCCC3)C2)c(OC)c1 (configuration not stated)	21	8
COc1ccc(OC)c(C2c3cccn3CCN2C(=O)NCc2ccccc2)c1 (configuration not stated)	3	0
COc1ccc(C)cc1NC(=O)N1CCC(CCc2ccc(C(F)(F)F)cc2)CC1	1	6
COc1ccc(COC(=O)C2=C(C)NC(=O)NC2c2cc(OC)ccc2OC)cc1 (configuration not stated)	-4	-7
CCOc1ccc(S(=O)(=O)Nc2cc(-c3cn4nc(OC)ccc4n3)ccc2C)cc1	-13	-18
COc1ccc(-n2cc(-c3ccnc(NCCN4CCNC4=O)n3)cn2)cc1	38	16
CCCC(=O)Nc1c(-c2ccccc2OC)nc2cc(C)ccn12	-6	-1
COc1ccc(NC(=O)N2CCc3nc(Cc4cccc(F)c4)[nH]c(=O)c3C2)cc1	-6	2
CCC1CN(CCNC(=O)c2cccnc2OC)Cc2cc(OC)ccc2O1 (configuration not stated)	4	2
COc1ccc(OC)c(NC(=O)CSc2nc3c(c(=O)n2-c2cc(C)cc(C)c2)SCC3)c1	-4	-8
COc1ccc(F)c(-c2nccn2CCCn2ccnc2)c1	5	3
CN=c1scc(-c2cc(OC)ccc2OC)n1N=C(C)c1ccc2c(c1)OCO2	-10	-16
COc1ccc(S(N)(=O)=O)cc1NC(=O)C=C1CCCCC1	-3	-3
COc1ccc(-c2cnc(-c3ccc(CNC(=O)c4cc(OC)cc(OC)c4)cc3)[nH]2)cc1	-15	-10
COc1cc(C(=O)N2CCN(Cc3ccc(-c4noc(C5CCCC5)n4)cc3)CC2)ccc1F	7	10
COc1ccc(-c2ccc(=O)n(Cc3ccc(C)cc3)n2)cc1OC	3	0
CCC(C)C(NC(=O)Nc1ccc(OC)cc1OC)C(=O)Nc1nnc(-c2cccc(Br)c2)s1 (configuration not stated)	0	5

High-throughput results (PubChem BioAssay)
